Mtb growth: Mycobacterium tuberculosis H37Rv growth inhibition, putative kinase inhibitor library, confirmatory dose response (AID 2842); M. tuberculosis H37Rv growth inhibition; higher % means a stronger effect; some inactives read as strong as hits; one-dose inhibition, % at 10 µg/mL; IC90 in µg/mL for titrated hits; 24,000 tested, 5.2% active;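 active = confirmed in a dose series; about a fifth of its hits are not listed in these tables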;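 note: bacteria incubated one week before Alamar blue readout; 0% = bacteria only wells and 100% = bacteria with high antibiotic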
An asterisk follows results filed as active.

SMILES	Mtb growth
CC1C(=O)N2CCCc3cc(NC(=O)c4ccccc4)cc1c32 (stereo not given)	-2%
O=C(Nc1nnc(-c2ccc(F)cc2)s1)c1ccccc1	9%
O=C(CCCCCN1C(=O)c2ccccc2C1=O)Nc1cccc(Cl)c1	-13%
CSc1ncc(C(=O)Nc2ccc(F)cc2)c(=O)n1C	-6%
Cc1ccccc1-n1nc2c(c1NC(=O)Cc1ccc(F)cc1)CSC2	4%
CCN1CCN(c2ccc(N3CCN(C(=O)c4ccccc4[N+](=O)[O-])CC3)nn2)CC1	6%
Cc1ccccc1N1C(=O)C(Cl)=C(NCCO)C1=O	-1%
CCC(=O)Nc1nnc(SCc2cc(=O)c(OC(=O)c3ccc(C)c([N+](=O)[O-])c3)co2)s1	-4%
CCOc1ccc(C(=O)Nc2c3c(nn2-c2cccc(C)c2C)CS(=O)C3)cc1 (stereo not given)	12%
O=C(Cc1n[nH]c(=O)[nH]c1=O)N/N=C/C=C/c1ccccc1	-7%
Cc1ccccc1NC(=O)CN1C(=O)/C(=C\c2cccs2)SC1=S	-11%
O=c1c(S(=O)(=O)c2ccc(F)cc2)cn(Cc2ccc(F)cc2)c2ccc(F)cc12	54%
COC(=O)c1ccc(C(=O)Nc2nc3c(cc4c5c(cccc53)CC4)s2)cc1	10%
OC(CN1CCN(c2ccc(Cl)cc2)CC1)Cn1c2ccccc2c2ccccc21 (stereo not given)	2%
O=C(Cn1cnc2c(cnn2-c2ccccc2)c1=O)NCc1ccc2c(c1)OCO2	10%
O=C(Oc1ccc2c(-c3cc4ccccc4oc3=O)cc(=O)oc2c1)N1CCOCC1	-10%
COc1cccc(NC(=O)CSc2ccc3nnc(-c4cccs4)n3n2)c1	-6%
O=C(CC1CCS(=O)(=O)C1)Nc1nc2ccc([N+](=O)[O-])cc2s1 (stereo not given)	10%
O=C(Nc1nnc(-c2ccc(Br)cc2)o1)c1ccc(S(=O)(=O)N2CCCCCC2)cc1	16µg/mL*
O=C(CSc1nc2c(c(=O)n1-c1ccccc1)SCC2)Nc1ccc2c(c1)OCCO2	0%
Cc1cc(C)cc(C(=O)Nc2nnc(-c3ccccc3Cl)s2)c1	8%
COc1cccc(-n2nnc(-c3nc(-c4ccccc4F)no3)c2N)c1	-10%
Cc1ccc(NC(=O)c2oc3ccccc3c2NC(=O)C2CCCCC2)cc1C	3%
O=C(Nc1c(C(=O)Nc2ccc(Cl)cc2)oc2ccccc12)c1ccc([N+](=O)[O-])cc1	6%
Cc1ccc2oc(C(=O)Nc3nc4ccc(S(C)(=O)=O)cc4s3)c(C)c2c1	4%

In a second layout: results already given
smiles: OC(CN1CCN(c2ccc(Cl)cc2)CC1)Cn1c2ccccc2c2ccccc21 (stereo not given)
  Mtb growth: 2%

smiles: O=C(Cn1cnc2c(cnn2-c2ccccc2)c1=O)NCc1ccc2c(c1)OCO2
  Mtb growth: 10%

smiles: O=C(Oc1ccc2c(-c3cc4ccccc4oc3=O)cc(=O)oc2c1)N1CCOCC1
  Mtb growth: -10%

smiles: COc1cccc(NC(=O)CSc2ccc3nnc(-c4cccs4)n3n2)c1
  Mtb growth: -6%

Given as a markdown table: entries from further up.
| canonical_smiles | Mtb growth |
| --- | --- |
| O=C(Cc1n[nH]c(=O)[nH]c1=O)N/N=C/C=C/c1ccccc1 | -7% |
| O=C(Nc1nnc(-c2ccc(Br)cc2)o1)c1ccc(S(=O)(=O)N2CCCCCC2)cc1 | 16µg/mL* |
| O=C(CC1CCS(=O)(=O)C1)Nc1nc2ccc([N+](=O)[O-])cc2s1 (stereo not given) | 10% |
| Cc1ccccc1NC(=O)CN1C(=O)/C(=C\c2cccs2)SC1=S | -11% |
| OC(CN1CCN(c2ccc(Cl)cc2)CC1)Cn1c2ccccc2c2ccccc21 (stereo not given) | 2% |
| Cc1ccccc1N1C(=O)C(Cl)=C(NCCO)C1=O | -1% |
| COC(=O)c1ccc(C(=O)Nc2nc3c(cc4c5c(cccc53)CC4)s2)cc1 | 10% |

The list continues:
SMILES	Mtb growth
COc1ccc(N2CC(NC(=O)Nc3ccc4c(c3)OCCO4)CC2=O)cc1OC (stereo not given)	-11%
Cc1nnc2ccc(-c3cccc(NC(=O)c4ccc5c(c4)OCO5)c3)nn12	-19%
O=C(/C=C/c1ccccc1)Nc1c(C(=O)Nc2ccc(OC(F)(F)F)cc2)oc2ccccc12	4%
COc1cccc(NC(=O)c2ccc(S(=O)(=O)N(C)C)cc2)c1	5%
COc1cccc(C2CC(=O)Nc3sc(C(=O)c4ccco4)c(N)c32)c1 (stereo not given)	-3%
O=Nc1c(-c2ccccc2)cc2ccccn12	3.3µg/mL*
CCn1c(SC(C)C)nc2c1c(=O)[nH]c(=O)n2C	1%
O=C(COC(=O)c1ccc2c(c1)C(=O)N(c1ccccc1Cl)C2=O)Nc1ccccc1C(F)(F)F	-3%
CCN(CC)Cc1c(O)c(Cl)cc2c3c(c(=O)oc12)CCCC3	-15%
CCn1c(CO)nc2ccccc21	9%
N#C/C(=C\Nc1cccc(Cl)c1)c1nc2ccccc2[nH]1	-2%
COc1ccc(C(=O)Nc2c(N)nc(SCC(=O)NCC3CCCO3)[nH]c2=O)cc1OC (stereo not given)	-1%
CCOC(=O)c1c(NC(=O)c2ccc(N3C(=O)CCC3=O)cc2)sc2c1CCC(C)C2 (stereo not given)	-13%
O=C(CN1C(=O)CCC1=O)Nc1ccc(O)c(-c2nc3ccccc3s2)c1	-17%
Cn1c(=O)c2c(SCC(=O)Nc3ccccc3C(F)(F)F)nc(-c3ccco3)nc2n(C)c1=O	0%
O=C(NCC1COC2(CCCC2)O1)C(=O)Nc1cccc([N+](=O)[O-])c1 (stereo not given)	-2%
Clc1cc(Cl)c2nc(N3CCN(c4nc5c(Cl)cc(Cl)cc5s4)CC3)sc2c1	4%
CCC(=O)Nc1c(C(=O)OC)sc2ccccc12	-5%
O=C(Nc1nnc(-c2cccc([N+](=O)[O-])c2)s1)C1CC1	8%
COCCNS(=O)(=O)c1ccc2c(c1)C(=NO)c1cc(S(=O)(=O)NCCOC)ccc1-2	-2%
O=C(c1cccc(Nc2nc(-c3ccccc3)c3cc(Br)ccc3n2)c1)N1CCCC1	78%
CCc1nnc(NC(=O)/C=C/c2ccc(OC)c(OC)c2)s1	-6%
COC(=O)C1=C(C)Nc2nc(SCc3ccccc3)[nH]c(=O)c2C1c1cccc(F)c1 (stereo not given)	6%
Cc1ccccc1CSc1[nH]c(=O)ncc1C	9%
COc1ccc(OC)c(NC(=O)c2oc3ccccc3c2NC(=O)c2ccccc2F)c1	-2%

(cont.)
SMILES	Mtb growth
CC(C)Cn1c(C2CC(=O)N(Cc3ccccc3)C2)nc2ccccc21 (stereo not given)	-4%
Cc1ccc(NC(=O)c2c(C(=O)Nc3ccc(Cl)cc3)sc3nc(=O)c(C)nn23)cc1C	3%
O=C(Nc1cccc2ccccc12)c1cnc2sccn2c1=O	-6%
C/C=C/C(=O)Nc1c(C(=O)Nc2ccc3c(c2)OCO3)oc2ccccc12	3%
Cc1c(Cl)cccc1NC(=O)CN1N=NC2C(=O)N(c3ccc(Br)cc3)C(=O)C21 (stereo not given)	-14%
O=C(CN1C(=O)CSC1=O)c1ccc(NC(=O)c2ccccc2)cc1	-20%
CCCCOc1ccc(C(=O)NCc2nnc(SCC(=O)Nc3nnc(C)s3)n2-c2ccccc2OC)cc1	0%
Cc1ccc(N2C(=O)C(Cl)=C(NCCO)C2=O)cc1	79%
COCCn1c(SCC(=O)Nc2nccs2)nnc1-c1c[nH]c2ccccc12	-1%
CC(C)Cc1nnc(NC(=O)C(Cl)Cl)s1	-3%
CC1CC(Nc2nc3c(c(=O)[nH]c(=O)n3C)n2CCCc2ccccc2)CC(C)(C)C1 (stereo not given)	4%
O=C(Nc1nnc(-c2ccccc2Cl)s1)c1ccc(Cl)cc1	-1%
Cc1sc2ncnc(SCC(=O)Nc3sc(-c4ccccc4)cc3C(N)=O)c2c1C	-5%
CCS(=O)(=O)c1ccc(C(=O)Nc2sccc2C(=O)NC)cc1	5%
CCOC(=O)c1nn(-c2ccc(Cl)cc2)c(=O)c2c(NC(=O)COC)scc12	-1%
N#CC1=C(SCC(=O)Nc2ccccc2F)NC2=C(C(=O)CCC2)C1c1ccco1 (stereo not given)	-2%
COc1ccc(OC)c2[nH]c(=O)c(CCNC(=O)COc3ccc(Cl)cc3)cc12	-1%
Cc1cn2c3c(=O)[nH]c(=O)n(C)c3nc2n1CCCNc1ccccc1	3.7µg/mL*
COc1cc(OC)cc(C(=O)Nc2sc3c(c2C(N)=O)CCN(C)C3)c1	6%
CCOC(=O)C(CC)Sc1nc2c(c(=O)[nH]c(=O)n2C)n1C(C)C (stereo not given)	8%
CC(=O)Nc1ccc2nc(NC(=O)CCOc3ccccc3)sc2c1	15%
O=c1ccc2ccc(OCCOc3ccc4ccc(=O)oc4c3)cc2o1	-13%
CCOCCCn1c(SCC(=O)Nc2cccc(C)c2)nc2c(oc3ccccc32)c1=O	1%
COc1ccc(N2CC(NC(=O)c3cccc([N+](=O)[O-])c3C)CC2=O)cc1OC (stereo not given)	-12%
COc1ccc2c(c1)sc(=NC(=O)CSCC(=O)N1CCc3ccccc31)n2C	-7%

Next part:
SMILES	Mtb growth
COc1ccc2cc(CCNC(=O)c3ccc(Cl)c([N+](=O)[O-])c3)c(=O)[nH]c2c1	13%
Nc1c(-c2nc(-c3ccc4c(c3)OCO4)no2)nnn1-c1cccc(C(F)(F)F)c1	-3%
CC(=O)N1CCc2c(sc(NC(=O)c3ccc(C#N)cc3)c2C#N)C1	0%
COc1cccc2sc(Nc3ccc(Cl)cc3)nc12	22%
COc1ccc(NC(=O)c2sc3nc4c(c(-c5ccc(C)o5)c3c2N)CCCC4)cc1	65%
Cc1ccc(/C(O)=C2\C(=O)C(=O)N(c3cc(C)on3)C2c2ccc(F)cc2)cc1 (stereo not given)	-4%
CN(CCCC(=O)Nc1nccs1)S(=O)(=O)c1ccc(Cl)cc1	-1%
O=C(CSc1nc(=O)[nH]c2c1CCC2)N1CCCC1	-9%
CC1Cc2nc(SCC(=O)Nc3ccc(Cl)cc3)n(Cc3ccccc3)c(=O)c2S1 (stereo not given)	-8%
CC(C)OCCCNC(=O)c1c(N)n(/N=C/c2ccccc2)c2nc3ccccc3nc12	-1%
c1cncc(-c2csc(Nc3nc4cc5c(cc4s3)OCO5)n2)c1	-12%
Cc1ccc(S(=O)(=O)N2CCCc3ccc(NS(=O)(=O)c4ccc(F)cc4C)cc32)cc1	-3%
Cc1cc2cc(CCNC(=O)c3ccc(C(F)(F)F)cc3)c(=O)[nH]c2cc1C	3%
CCCCC(=O)Nc1nnc(SCC(=O)Nc2nccs2)s1	-2%
O=C(Nc1c(C(=O)Nc2ccc3c(c2)OCCO3)oc2ccccc12)c1ccco1	-1%
CS(=O)(=O)Oc1ccc2c(c1)O/C(=C\c1cccs1)C2=O	2%
COc1ccc(C(=O)NNc2nc3ccc(Cl)cc3s2)cc1OC	65%
COc1ccc(N2C(=O)NC3CC2(C)Oc2ccc([N+](=O)[O-])cc23)c(OC)c1 (stereo not given)	-17%
Cc1cc(C)cc(NC(=O)CSc2nc3c(c(=O)n2-c2ccccc2)SCC3)c1	-3%
O=C(c1ccccc1Cl)c1cc(Cl)ccc1NC(=O)c1cnc2n(c1=O)CCS2	6%
CCOC(=O)c1ccc(NC(=O)CSc2ncnc3c2nnn3Cc2ccc(F)cc2)cc1	-3%
O=[N+]([O-])c1ccc(S(=O)(=O)Nc2nc3ccccc3s2)cc1	7%
COc1ccc(NS(=O)(=O)c2c[nH]c(=O)[nH]c2=O)cc1	4%
COc1ccc(-c2csc(NC(=O)c3cc(Cl)cc(Cl)c3)n2)cc1	2%
CC1CC(C)CN(c2nc3c(c(=O)n(C)c(=O)n3C)n2CCSc2nc3ccccc3s2)C1 (stereo not given)	14%

The final two compounds of the section above come first, to join the parts.
SMILES	Mtb growth
COc1ccc(-c2csc(NC(=O)c3cc(Cl)cc(Cl)c3)n2)cc1	2%
CC1CC(C)CN(c2nc3c(c(=O)n(C)c(=O)n3C)n2CCSc2nc3ccccc3s2)C1 (stereo not given)	14%
O=C(Nc1nnc(-c2ccccc2)s1)c1cccc(F)c1	50%
N#C/C(=C(/O)c1ccc(-c2ccc([N+](=O)[O-])cc2Cl)o1)c1nc2ccccc2s1	-12%
COc1cccc(NC(=O)NNc2nc3c(-c4ccccc4)nnn3c3ccccc23)c1	-26%
O=C(Nc1c(C(=O)Nc2ccc([N+](=O)[O-])cc2)oc2ccccc12)c1ccco1	9%
CN(C)c1ccc(/C=N/Nc2nncc(=O)[nH]2)cc1	2%
COc1cccc(NC(=O)C(=O)Nc2cc3c4c(c2)CCC(=O)N4CCC3)c1	24%
Cc1ccc(O)c(NC2=C(Cl)C(=O)N(c3cc(Cl)ccc3Cl)C2=O)c1	10%
Cc1ccc(NCC(=O)Nc2ncc(Cc3cccc(Cl)c3Cl)s2)cc1C	-4%
Cc1ccc(CNC(=O)C(=O)Nc2cc3c4c(c2)C(C)C(=O)N4CCC3)cc1 (stereo not given)	13%
O=C(CSc1nncc(=O)[nH]1)Nc1cccc(Cl)c1Cl	-5%
O=C(Nc1cccc(Cl)c1)c1ccc(Nc2nc(-c3ccccc3)c3ccccc3n2)cc1	46%
COc1cccc(N2CC(NC(=O)c3cccc(C)c3)CC2=O)c1 (stereo not given)	8%
COc1ccc(-n2c(=O)[nH]c3c(C(N)=O)nc(-c4ccc(C)o4)nc32)cc1OC	-12%
COc1ccc(S(=O)(=O)c2n[nH]n3c2nc(=O)c2ccccc23)cc1	0%
CCc1ccc(NC(=O)CSc2nc(N)c(NC(=O)c3ccc(F)c(F)c3)c(=O)[nH]2)cc1	2%
COc1ccccc1-c1csc(NC(=O)c2ccc(Br)cc2F)n1	2%
C=CCSc1nc2c(c(=O)[nH]c(=O)n2C)n1Cc1ccc(Cl)cc1	70%
CCOC(=O)c1nn(-c2ccccc2)c(=O)c2c(NC(=O)c3ccc(C)cc3)scc12	2%
O=C(CSc1nnc(CNC(=O)c2ccc(F)cc2)o1)c1ccccc1	-15%
COc1ccc(OC)c(NC(=O)c2oc3ccccc3c2NC(=O)Cc2cccc(C)c2)c1	-2%

Not all compounds are listed; rates above refer to the full screens.
